# Marburg entry inh = blocks Marburg virus binding to or entry into cells; AID 540276; Marburg virus pseudotyped entry inhibition, cell reporter; control for the full effect not named in the record; about a third of the inactives were read at about 46 µM; Potency, µM (top dose mostly 37.8 µM), for inactives: at the top dose activity change, negative = inhibition, actives largely listed as inhibitors; hit rate 1.8% among 300,000; active = well fitted inhibition curve with a large enough effect; inconclusive = small, poorly fitted or top-dose-only effect, or effect the other way; inactive = flat fitted curve, though single readings scatter; tested in HEK293 cells; about a fifth of its hits are not listed in these tables; note: % is set by controls: 0 for no effect and ±100 for the full control effect; luciferase read-out
# Cruzain Triton = inhibitors of Trypanosoma cruzi cruzain with detergent. P25779. purified cruzain, Z-FR-AMC fluorescence, 0.01% Triton. Potency, µM, for inactives: max response, negative = inhibition, most hits filed as inhibitors. hit rate 0.43% among 200,000; active = well fitted curve in the direction sought with a large enough effect; inconclusive = small, poorly fitted or top-dose-only effect, or another doubt; inactive = no such curve, though single readings can be large; an effect the other way counts as inactive or inconclusive;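 note: plate controls were neutral wells for no effect and buffer without enzyme for full effect; nearly all actives have a fitted effect of over 40% in size; top concentration of the series not given in the record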
# Target sequence (P25779 123-467 limits assumed): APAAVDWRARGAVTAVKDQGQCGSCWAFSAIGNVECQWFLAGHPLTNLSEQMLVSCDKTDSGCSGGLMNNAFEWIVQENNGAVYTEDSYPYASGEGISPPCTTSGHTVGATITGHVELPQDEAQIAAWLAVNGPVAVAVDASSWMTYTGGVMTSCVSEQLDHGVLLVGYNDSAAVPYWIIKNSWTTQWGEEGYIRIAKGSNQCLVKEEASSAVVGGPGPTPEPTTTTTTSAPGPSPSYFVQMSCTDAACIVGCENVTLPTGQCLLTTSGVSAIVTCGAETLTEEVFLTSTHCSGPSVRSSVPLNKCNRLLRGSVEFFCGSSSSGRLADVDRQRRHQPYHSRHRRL
#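 Cysteine protease activity tested under reducing, mildly acidic conditions (100 mM sodium acetate pH 5.5, 5 mM DTT) plus 0.01% Triton X-100. Cruzain 1.5 nM; substrate Z-FR-AMC 2 uM; 15 min compound preincubation at room temperature.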
# LASV entry inh = Lassa virus entry inhibition. Lassa virus pseudotype entry inhibition, cell reporter; control for the full effect not named in the record. AID 540256. Potency, µM (doses to about 37.9 µM), without a hit: at the top dose activity change, negative = inhibition, most hits filed as inhibitors. hit rate 1.2% among 300,000; active means well fitted inhibition curve with a large enough effect; inconclusive means small, poorly fitted or top-dose-only effect, or effect the other way; inactive means flat fitted curve, though single readings scatter; tested in HEK293 cells; note: % is set by controls: 0 for no effect and ±100 for the full control effect; nearly all actives have a fitted effect of over 50% in size; luciferase read-out
# SARS PLP yeast = blocks SARS-CoV papain-like protease in a yeast assay; S. cerevisiae expressing SARS-CoV PLpro, growth rescue; control for the full effect not named in the record; Potency, µM (series often up to 32.9 µM), for inactives: top-dose activity, positive = growth rescue; hit rate 0.19% among 330,000; AID 485353; note: 0% is about no effect; nearly all actives have a fitted effect of over 55% in size; growth read by luminescence after 48 h
# Cruzain inh noDet = inhibitors of Trypanosoma cruzi cruzain without detergent. P25779. Potency, µM, for inactives: max response, negative = inhibition, most hits filed as inhibitors. hit rate 2.3% among 200,000. purified cruzain, Z-FR-AMC fluorescence, no detergent; active = well fitted curve in the direction sought with a large enough effect; inconclusive = small, poorly fitted or top-dose-only effect, or another doubt; inactive = no such curve, though single readings can be large; an effect the other way counts as inactive or inconclusive;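 note: plate controls were enzyme without inhibitor for no effect and buffer without enzyme for full effect; nearly all actives have a fitted effect of over 40% in size; top concentration of the series not given in the record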
#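 Purified cruzain at 1.5 nM, pre-incubated 15 min with compound at room temperature in 100 mM sodium acetate pH 5.5, 5 mM DTT, 0.00005% Triton X-100. Reaction started with 2 uM Z-FR-AMC; AMC fluorescence increase over 60 s gives rate.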
# 2A StopGo = lowers the luciferase signal of an FMDV 2A StopGo reporter | Potency, µM (top dose mostly 57.9 µM), inactives show top-dose signal change, negative = less light | AID 1159524 | hit rate 1.2% among 410,000 | human cells with a luciferase reporter of 2A StopGo recoding; control for the full effect not named in the record; active = well fitted falling curve with a large enough effect; inconclusive = small, poorly fitted or top-dose-only effect; inactive = no such curve, though single readings can be large or run the other way; tested in HEK293T cells; note: % is set by controls: 0 for no effect and ±100 for the full control effect; nearly all actives have a fitted effect of over 45% in size; luciferase light after 4 h
# RE007 growth inh = less growth of the S. pombe RE007 Vpr strain. Potency, µM (series often up to 92.2 µM), for inactives: top-dose activity change, negative = less growth. hit rate 0.21% among 360,000. AID 651644. S. pombe RE007 Vpr strain, BacTiter-Glo ATP luminescence, 24 h; control for the full effect not named in the record; active = well fitted falling curve with a large enough effect; inconclusive = small, poorly fitted or top-dose-only effect; inactive = no such curve, though single readings can be large or run the other way;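 note: % is set by controls: 0 for no effect and ±100 for the full control effect; nearly all actives have a fitted effect of over 50% in size; the assay follows cell death caused by Vpr and the record does not say whether a fall means rescue or toxicity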
#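 Fission yeast strain RE007, carrying one chromosomally integrated HIV-1 vpr copy, was seeded at OD 0.01 in PMG+AL medium with 23 nL pinned compound. After 24 h at 30 °C and 99% humidity, viability was read by BacTiter-Glo luminescence.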
# NS1 inh = inhibitors of influenza NS1 protein function; hit rate 0.4% among 270,000; AID 2326; S. cerevisiae slowed by influenza A NS1, growth recovery by OD600; Potency, µM (doses to about 46.1 µM), inactives show at the highest dose activity, positive = more growth; note: actives are rising curves; nearly all actives have a fitted effect of over 50% in size
#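 Growth recovery, yeast-based: influenza A NS1 expressed in S. cerevisiae causes slow growth, and suppressors are detected by OD600. The parent strain without NS1 is used as positive control.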
# Numbers without * were called inactive; ? = inconclusive; / = no result given; [ ] = another dose, or the depositor's remark. Unless noted, calls come from the whole dose curve; as a rule, active means well fitted rising curve with a large enough effect; inconclusive means small, poorly fitted or top-dose-only effect; inactive means no such curve, though single readings can be large or run the other way. Potency is the fitted concentration of half-maximal effect.
SMILES,Marburg entry inh,Cruzain Triton,LASV entry inh,SARS PLP yeast,Cruzain inh noDet,2A StopGo,RE007 growth inh,NS1 inh
CN1C=CC=C/C1=C1/N=C(c2ccccc2)OC1=O,/,/,/,-1.0%,/,64.0%[activator],6.8%,-6.7%
COc1ccc(N2CCN(Cc3cccn3-c3nnc(N4CCN(C5CCCCC5)CC4)s3)CC2)cc1,/,-1.8%,/,/,-8.4%,-21.4%,/,/
COc1ccc(S(=O)(=O)Nc2nnc(CC(C)(C)C)s2)cc1,10.5%[46.1 µM],/,-2.1%,3.5%,/,37.7%[activator],18.8%,2.3%
CC(=O)c1sc(NC(=O)c2cc(-c3ccccc3)nn2-c2ccccc2)nc1C,?,-5.9%,?,-19.6%,-15.8%,?,0.0%,14.6%
CCOc1ccc2nc(SCC(=O)NC(=O)C(C)C)sc2c1,-4.5%[46.1 µM],/,6.8%,-0.4%,/,31.8%[activator],7.9%,/
CCN(Cc1ccncc1)C(=S)Nc1c(C)cccc1C,8.9%,-0.1%,-1.7%,1.7%,-4.2%,-17.1%,-8.9%,6.7%
CCCOc1ccccc1Cn1c(=O)oc2ccccc21,-3.1%[46.1 µM],/,-1.4%[46.1 µM],-3.3%,/,-11.4%,1.6%,-11.8%
O=c1c(-c2ccc(O)cc2)coc2c(C3O[C@H](CO)[C@@H](O)[C@H](O)[C@H]3O)c(O)ccc12 (stereo not given in full),5.2%,/,2.9%,-0.8%,/,1.8%,-11.5%,8.0%
O=C(Cc1ccc(NC(=O)N2CCCCc3ccccc32)cc1)NCc1cccc(Br)c1,/,-5.2%,-16.4%[46.1 µM],/,5.8%,20.4%,/,/
CCc1ccc(NC(=O)CSC2=C(C#N)C(c3ccco3)C3=C(CCCC3=O)N2)cc1 (stereo not given),-28.9%,-8.6%,?,-2.2%,-20.7%,-15.2%,12.3%,7.6%
NS(=O)(=O)c1ccc(N/C=C/C(=O)c2ccc(Br)cc2)cc1,?,-2.9%,5.3%,-0.4%,-14.8%,19.7%,40.0%,9.4%
COC1=CC(=O)CC(C)C12Oc1cc(OC)cc(OC)c1C2=O (stereo not given),/,/,/,-3.9%,/,-18.3%,-17.6%,6.0%
CCCCSCCCNC(=O)c1cc(-c2cccnc2)nc2ccc(S(=O)(=O)N3CCC(C)CC3)cc12,/,0.3%,24.8%[46.1 µM],/,0.6%,-9.5%,/,/
O=C(NCc1ccc(Cl)cc1)C1CCCN1C(=O)Nc1ccc(F)cc1 (stereo not given),/,/,/,-4.0%,/,8.3%,2.7%,-2.4%
Cc1c(C)c2ccc(OCC(=O)N[C@@H](Cc3ccccc3)C(=O)O)cc2oc1=O,/,/,/,-3.3%,/,-0.7%,-2.8%,12.6%
O=C(CN1CCOCC1)Nc1ccc(OC(F)(F)F)cc1,/,/,/,2.6%,/,34.2%[activator],7.5%,6.5%
Fc1ccc(CNCc2ccc3c(c2)OCO3)cc1,-26.3%,/,24.2%,1.6%,/,4.0%,-0.9%,13.9%
COc1ccc(CN(C)CC(O)COc2ccc(C(=O)c3ccccc3)cc2)c(OC)c1OC (stereo not given),?,/,?,3.8%,/,-28.1%,-3.5%,-9.1%
Cn1cc(C(=O)CCl)c2ccccc21,16.4µM*,/,?,21.5%,/,22.4µM*,2.7%,1.4%
N#CC1=C2SCC(O)(c3ccccc3)N2C(=O)CC1c1ccccc1F (stereo not given),?,-12.1%,?,6.9%,?,?,-1.1%,2.6%
Cc1ccc(NS(=O)(=O)c2ccc3[nH]c(=O)sc3c2)cc1,23.3%[46.1 µM],/,-3.0%,0.8%,/,0.0%,3.9%,/
C=CCn1c(SCC(=O)Nc2nnc(CC)s2)nnc1-c1ccncc1,3.4%[46.1 µM],/,12.9%[46.1 µM],0.7%,/,-17.9%,4.0%,-1.3%
Cc1cccc(CC2SC(N)=NC2=O)c1 (stereo not given),12.2%[46.1 µM],/,0.1%[46.1 µM],-3.0%,/,17.0%,0.0%,/
Cc1cc(SCc2ccccc2)nc(=O)[nH]1,23.3%,6.3%,-3.8%,-3.1%,7.7%,29.8%,-0.8%,12.7%
COc1ccc(CNS(=O)(=O)CCNC(=O)c2ccccc2)cc1,?,/,2.9%,-1.5%,/,56.8%[activator],5.6%,/
COC(=O)C1=C(C)N(CCCC(=O)O)C(=O)NC1c1ccc(Br)cc1 (stereo not given),/,/,/,-0.6%,/,-6.1%,2.0%,8.9%
CCOc1ccc(NC(=O)Cn2cc(C(=O)c3ccc(C)cc3)c(=O)c3cc4c(cc32)OCO4)cc1,-0.4%[46.1 µM],-1.6%,-1.4%[46.1 µM],/,-0.9%,-12.7%,/,/
CC1CN(C(=O)c2ccc(COc3ccccc3Cl)o2)CC(C)O1 (stereo not given),?,/,?,-0.4%,/,4.6%,-24.9%,-21.9%
COC(=O)[C@@]1(Cc2ccc(F)cc2)[C@H]2c3cc(C(=O)N4CCCC4)n(Cc4cc(F)cc5c4OCOC5)c3C[C@H]2CN1C(=O)c1ccccc1,/,0.3%,/,/,?,-20.4%,1.4%,/
Cc1nn(C)cc1CN(C)C(=O)c1cc(COc2ccc(F)cc2F)on1,/,/,/,-0.3%,/,-6.2%,-21.4%,0.8%

# Another view of some results above.
# The line under a structure holds: Marburg entry inh	Cruzain Triton	LASV entry inh	SARS PLP yeast	Cruzain inh noDet	2A StopGo	RE007 growth inh	NS1 inh
- Cc1cccc(CC2SC(N)=NC2=O)c1 (stereo not given)
  12.2%[46.1 µM]	/	0.1%[46.1 µM]	-3.0%	/	17.0%	0.0%	/
- Cc1cc(SCc2ccccc2)nc(=O)[nH]1
  23.3%	6.3%	-3.8%	-3.1%	7.7%	29.8%	-0.8%	12.7%
- COc1ccc(CNS(=O)(=O)CCNC(=O)c2ccccc2)cc1
  ?	/	2.9%	-1.5%	/	56.8%[activator]	5.6%	/
- COC(=O)C1=C(C)N(CCCC(=O)O)C(=O)NC1c1ccc(Br)cc1 (stereo not given)
  /	/	/	-0.6%	/	-6.1%	2.0%	8.9%
- CCOc1ccc(NC(=O)Cn2cc(C(=O)c3ccc(C)cc3)c(=O)c3cc4c(cc32)OCO4)cc1
  -0.4%[46.1 µM]	-1.6%	-1.4%[46.1 µM]	/	-0.9%	-12.7%	/	/

# Later entries:
SMILES,Marburg entry inh,Cruzain Triton,LASV entry inh,SARS PLP yeast,Cruzain inh noDet,2A StopGo,RE007 growth inh,NS1 inh
COc1cccc(NC(=O)CN(C)C(=O)CN2C(=O)NC3(CCCC3)C2=O)c1,?,/,-16.9%,-2.6%,/,-17.1%,2.0%,/
CC(=O)NC1CC2CCC(C1)N2 (stereo not given),-12.1%,1.9%,22.6%,8.4%,0.3%,21.3%,13.1%,-1.8%
Cc1ccc(C)c(N2CCN(S(=O)(=O)CC34CCC(CC3=O)C4(C)C)CC2)c1 (stereo not given),/,/,/,-8.3%,/,-8.8%,1.7%,-34.9%
COC(=O)Cn1c(=NC(=O)c2ccc3c(c2)OCCO3)sc2ccccc21,/,1.9%,32.1%[46.1 µM],/,5.0%,26.5%,/,/
COc1ccc(/C=C/C=C2\NC(=S)NC2=O)cc1,-9.4%[46.1 µM],/,1.7%[46.1 µM],-0.9%,/,22.2%,21.7%,/
Cc1ccsc1/C=N/NC(=O)C1CC(=O)N(c2ccccc2)C1 (stereo not given),2.0%,-6.8%,3.4%,0.3%,-5.3%,4.7%,14.8%,-3.5%
O=C1Nc2ccccc2C(=O)N2CCCCC12 (stereo not given),4.9%[46.1 µM],/,16.3%[46.1 µM],0.3%,/,0.0%,-11.7%,5.8%
CN(C)CCNCCCNc1c2ccccc2nc2cccc([N+](=O)[O-])c12,?,/,?,/,/,?,-1.3%,/
CCOC(=O)c1snc(C(=O)NC2CCCCC2)c1N,?,-7.7%,-20.9%,-4.6%,-10.3%,40.6%[activator],?,-108.6%
Cc1ccc(C(=O)N2CCN(C(=O)CN3CCOCC3)C2)cc1,8.2%,3.4%,5.8%,0.5%,4.7%,-15.0%,-8.0%,?
Cc1ccccc1NS(=O)(=O)c1ccc(C(=O)NN2CCCCC2)cc1,4.6%,/,1.3%,-0.2%,/,-16.3%,-27.3%,27.6%
COc1ccc(CCN(C)C(=O)Cn2c(=O)oc3ccccc32)cc1OC,-1.3%[46.1 µM],/,-0.4%,-0.1%,/,-0.9%,-5.5%,20.6%
O=C(Cc1ccccc1)Nn1c(-c2ccccc2)nc2ccccc2c1=O,29.8%,2.2%,-0.1%,11.3%,-2.1%,-4.0%,1.4%,-12.8%
CCOC(=O)/C(C#N)=C\c1cn(C)c2ccccc12,-7.3%[14.2 µM],/,15.6%,-1.2%,/,9.2%,1.5%,-4.0%
COc1ccc(-c2ccc(NCCC3=CCCCC3)nn2)cc1OC,0.6%,-7.0%,4.5%,2.1%,-6.4%,-1.3%,-6.1%,6.7%
CCC(C)NC(=O)c1c(N)n(CC2CCCO2)c2nc3ccccc3nc12 (stereo not given),-6.0%,-19.8%,-14.0%,-16.3%,?,?,19.1%,-54.1%
Cc1c(Cl)ccc2c1NC(=O)[C@]21N[C@@H](CCC(N)=O)[C@H]2C(=O)N(c3ccc(F)cc3)C(=O)[C@H]21,-7.4%[46.1 µM],-4.0%,3.3%,-12.3%,-6.1%,-1.3%,-8.6%,-11.8%
CSc1ccccc1NC(=O)CN(C)C(=O)c1cccc(S(=O)(=O)N(C)C)c1,-1.3%[46.1 µM],/,1.2%[46.1 µM],-0.5%,/,-7.6%,11.3%,/
Cc1ccc(-c2nc3ccccc3c(=O)n2-c2ccncc2)cc1,7.8%,0.7%,-13.7%,-14.1%,-0.8%,-23.3%,-19.2%,-3.4%
CC1=C(C(=O)Nc2cccnc2)C(c2ccccc2)n2nc(SCc3ccccc3F)nc2N1 (stereo not given),?,4.1%,-1.5%[46.1 µM],/,9.6%,6.4%,/,/
CCNc1nc(NCC)nc(N/N=C/c2ccc(O)c(OC)c2)n1,-5.1%[46.1 µM],/,-4.4%[46.1 µM],0.7%,/,4.2%,10.1%,6.1%

# High-throughput results deposited in PubChem by National Center for Advancing Translational Sciences (NCATS).
